HNF4A DNA FP: change in binding of human HNF4 alpha to DNA; P41235; HNF4a-FITC DNA binding, fluorescence polarization, 1 h; activity change, % at 10 µM; 360,000 tested, 0.3% active; AID 1224865; in the data active = activity change above about 30%, passing the limit was not always enough;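 also: controls were the assay level and a saturating level of protein; the project sought stronger binding though the title names inhibitors; some compounds called inactive have numbers as strong as hits; positive values seem to mean higher polarization but the record does not say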
Target sequence (P41235 whole entry, looked up): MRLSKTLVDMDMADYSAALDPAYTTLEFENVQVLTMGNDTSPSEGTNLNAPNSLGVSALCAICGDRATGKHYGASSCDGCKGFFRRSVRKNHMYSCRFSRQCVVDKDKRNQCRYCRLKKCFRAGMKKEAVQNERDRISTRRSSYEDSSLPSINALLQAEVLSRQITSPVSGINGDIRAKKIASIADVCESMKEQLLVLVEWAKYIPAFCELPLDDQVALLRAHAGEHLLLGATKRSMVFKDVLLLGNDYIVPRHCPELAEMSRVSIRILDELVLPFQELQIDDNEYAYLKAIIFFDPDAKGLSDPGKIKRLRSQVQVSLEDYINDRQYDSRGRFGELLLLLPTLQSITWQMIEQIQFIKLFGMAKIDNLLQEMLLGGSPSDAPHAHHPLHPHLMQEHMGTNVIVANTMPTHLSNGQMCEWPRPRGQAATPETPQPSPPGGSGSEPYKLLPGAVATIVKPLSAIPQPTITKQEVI
LANA-H2B inh: blocks KSHV LANA binding to histone H2A/H2B; inhibition, % (test concentration not listed); Q9QR71; AID 2629; 320,000 tested, 0.6% active; cell-free LANA-H2A/H2B peptide, fluorescence polarization; in the data active = inhibition mostly above about 10%, no sharp cut-off; inactive = mostly below about 6.7%;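 also: stock transfer was 7.5 nL into about 10 µL; 0% = median of vehicle wells and 100% = median of positive control wells; one replicate is shown; the record names a cut of 25% in any replicate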
UCH37 inh: human UCH37 deubiquitinating enzyme inhibition | 330,000 tested, 0.33% active | Q9Y5K5 | purified proteasome/UCH37, Ub-AMC cleavage fluorescence | inhibition, % (test concentration not listed);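 active = mean of two replicates above 20%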;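 also: 0% = compound-free wells with enzyme and 100% = wells lacking proteasome; stock transfer was 100 nL into about 20 µL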
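Material: Human UCH37 enzyme supplied as purified proteasome complex | Schedule: 30 min preincubation with enzyme, 25 min cleavage at room temperature | Detection: AMC fluorescence 355/460 nm | Measure: % inhibition of Ub-AMC cleavage fluorescence | Controls: Wells without proteasome as full block, compound-free enzyme plus substrate as uninhibited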
Beta2AR agonist: agonists of human beta-2 adrenergic receptor inducing internalization | P07550 | Am2.2-beta2AR cells, FAP receptor internalization, flow cytometry; reference of the scale not given here | response, % (concentration not given with the values) | 340,000 tested, 0.43% active | AID 504454;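 active = response above a set limit, near 3 SD of response in nonfluorescent compounds, cut at about 42% in these data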;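 also: stock transfer was 100 nL into about 11 µL; a reference agonist was the positive control; negative values mostly stem from fluorescent compounds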
Target sequence (P07550 whole entry, looked up): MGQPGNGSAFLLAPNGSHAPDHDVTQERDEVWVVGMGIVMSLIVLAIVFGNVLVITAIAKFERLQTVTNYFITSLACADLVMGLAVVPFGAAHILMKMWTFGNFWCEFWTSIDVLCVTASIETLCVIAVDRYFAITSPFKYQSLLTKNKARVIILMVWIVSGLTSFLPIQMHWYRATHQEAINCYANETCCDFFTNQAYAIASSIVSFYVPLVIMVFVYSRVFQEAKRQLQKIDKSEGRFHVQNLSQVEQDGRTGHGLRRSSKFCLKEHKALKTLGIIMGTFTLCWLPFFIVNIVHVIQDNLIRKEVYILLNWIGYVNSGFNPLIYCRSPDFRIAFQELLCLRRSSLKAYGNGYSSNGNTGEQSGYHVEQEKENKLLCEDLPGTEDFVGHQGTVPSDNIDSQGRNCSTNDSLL
Vif TR-FRET: HIV-1 Vif–A3G interaction blockers – biochemical, TR-FRET, GST-Vif 1-94, biotin-A3G peptide, dose response retest, primary screen (AID 1117319). inhibition, %; hits with a dose series show IC50 in µM. TR-FRET GST-Vif / biotin-A3G peptide binding; higher % means a stronger effect; test concentration not given here; strong numbers were not always called active. 260,000 tested, 0.57% active;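 active = above the screen mean plus three standard deviations and confirmed in dose response; inconclusive = results disagree or hit not tested in dose response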;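 also: Vif residues 1-94 fused to GST binding biotinylated APOBEC3G peptide 110-148; 0% = full assay without inhibitor and 100% = GST in place of GST-Vif; retest series ran down from 100 µM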
Bfl-1 A1 inh: inhibitors of the anti-apoptotic protein A1, read as caspase activation; 330,000 tested, 0.066% active; MEF A1-2A-BIM cells, Caspase-Glo 3/7 luminescence, 3 h; percent of clofoctol response, vehicle zero; caspase activation, % (no concentration beside the values);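 active = over half of replicate activation scores above 10%, or exactly half above 10 with the replicate mean above 10; inconclusive = replicate mean below 10 yet half the replicates above 10; inactive = over half of replicates below 10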;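 also: wells of about 30 µL received 50 nL stock; many hits fall short of the cut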
Ecoli growth: blocks Escherichia coli growth; OD600, 23 h; stronger effect = lower value; 330,000 tested, 0.21% active; OD600 absorbance (no concentration beside the values);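 active = OD600 absorbance below the run mean of sample wells minus 3.6 SD, in any replicate, cut at about 0.56 in these data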;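 also: stock transfer was 300 nL into about 60 µL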
The depositor's hits bear a star; i = inactive; u = inconclusive; x = not tested or not shown; & = joins results of further samples. Compounds as they come; overall some 2.1% were active at least once.

SMILES	HNF4A DNA FP	LANA-H2B inh	UCH37 inh	Beta2AR agonist	Vif TR-FRET	Bfl-1 A1 inh	Ecoli growth
CNS(=O)(=O)c1ccc(NC(=O)Nc2cccc(F)c2)cc1	1.9	1.5	2.8	6.7	2.7%	0.2	0.511*
O=C(CCl)N1CCN(S(=O)(=O)c2ccc3ccccc3c2)CC1	-0.2	1.8	3.6	8.9	x	0.1	0.654
CC(=O)OCC1OC(OC2C[C@]3(C)C(CC(O)C4C([C@](C)(CCC=C(C)C)OC5OC(CO)C(O)C(O)C5O)CC[C@]43C)[C@@]3(C)CCC(O)C(C)(C)C23)C(O[C@@H]2OC(C)C(O)C(O)C2O)C(O)C1O (stereo partly specified)	0.7	8.4	1.6	1.6	10.4%	-1.6	0.697
CNC(=O)CSCc1c(F)cccc1Cl	-0.3	-4.5	4.8	-3.6	x	-0.5	0.722
COc1ccc(-c2noc3c2-c2nc(C4CCCCC4)sc2CC3)cc1	1.3	-1.7	-2.0	1.0	x	1.5	0.713
CC1(C)CC(=O)C=C(NC2CC(C)(C)NC(C)(C)C2)C1	3.6	-1.3	0.2	0.5	-2.5%	0.9	0.685
CCOC(=O)c1cnc(SCC#N)nc1N	-0.2	1.0	3.7	-3.2	4.7%	-2.5	0.689
CC(C)c1nc(CNC(=O)CC2C(=O)NCCN2Cc2ccoc2)cs1 (stereo unspecified)	-4.6	3.6	0.0	-3.6	1.9%	-0.1	0.695
Cc1cc(N2CCN(C)CC2)nc2ccc(NC(=S)N3CCN(c4cccc(Cl)c4)CC3)cc12	0.1	-3.1	-28.4	25.5	-4.6%	1.5	0.732
Cc1ccc(NC(=O)COC(=O)CNC(=O)C2CCCCC2)c(Br)c1	-0.7	1.5	1.4	9.5	-2.2%	1.2	0.705
O=c1[nH]c(C2CCCN(S(=O)(=O)c3ccccc3)C2)nc2c1nnn2Cc1ccc(OC(F)(F)F)cc1 (stereo unspecified)	-1.1	1.3	-1.9	-7.3	-8.8%	-0.3	0.724
CCC1(c2ccc(F)cc2)NC(=O)N(CC(=O)Nc2ccc(S(N)(=O)=O)cc2)C1=O (stereo unspecified)	-1.2	-2.7	1.5	2.3	1.6%	-0.3	0.647
COc1ccc(C(=O)Nc2ccccc2NC(=O)c2ccco2)cc1OC	-1.0	0.1	3.4	-4.2	-2.1%	0.7	0.706
COc1cccc(OC)c1C(=O)Nc1cc(C)nn1-c1nc2ccccc2[nH]1	2.8	1.0	0.2	5.3	3.2%	-1.2	0.641
O=C(CCCCC(=O)NN=Cc1ccc(Cl)cc1)NN=Cc1ccc(Cl)cc1	9.8	x	2.8	-1.0	-1.1%	x	0.673
O=C(NC(=S)N1CCN(c2ccc(Cl)cc2[N+](=O)[O-])CC1)c1cccs1	0.7	3.7	2.6	9.9	x	1.5	x
COc1ccc(Cc2n[nH]c(=S)n2-c2ccc3c(c2)OCCO3)cc1	3.0	2.8	-2.9	-1.0	7.6%	-0.4	0.661
COCc1cc(C)nc(SCC(=O)Nc2ccc(C)c(C)c2)c1C#N	-3.0	-1.2	-5.0	-15.0	-17.3%	-0.3	0.751
COc1ccc(/C=N\NC(=O)C2C(=O)NCC2c2ccccc2)cc1O (stereo unspecified)	1.6	3.4	x	3.4	11.3%	0.2	x
Cc1cccc(N2CCN(C(=O)C3CCC(=O)N(C4CC4)C3)CC2)c1C (stereo unspecified)	-0.3	-2.8	5.0	7.6	x	0.2	0.688
C=CCOc1ccc(C2=NOC(C(=O)Nc3ccc4c(c3)OCCO4)C2)cc1OC (stereo unspecified)	7.2	2.4	4.3	-18.3	4.9%	0.7	0.657
CCOC(=O)c1cnc2[nH]c3ccccc3n2c1=O	1.8	-7.2	i	-1.5	1.3%	0.0	0.661
Cc1sc2nc(CSC(C)C(=O)Nc3ccccn3)[nH]c(=O)c2c1C (stereo unspecified)	20.1	-0.7	-5.4	12.5	9.0%	-0.3	0.691
COC(=O)Nc1ccc(S(=O)(=O)N2CCCC(C(=O)Nc3cccc4c3OCCO4)C2)cc1 (stereo unspecified)	0.0	2.7	2.3	2.5	1.7%&1.6%	0.0	0.689
Cc1ccc(C(=O)NCC(c2ccc(F)cc2)N2CCOCC2)cc1 (stereo unspecified)	77.2*	4.2	3.1	-3.5	x	0.0	0.688
SMILES	HNF4A DNA FP	LANA-H2B inh	UCH37 inh	Beta2AR agonist	Vif TR-FRET	Bfl-1 A1 inh	Ecoli growth
NC(=O)Nc1ccc(Oc2c(F)c(F)c(F)c(F)c2F)cc1	-1.1	2.7	5.9	3.4	13.5%	u	0.708
COC(=O)[C@]1(Cc2ccccc2)N[C@H](c2ccc(-c3cc(C(C)=O)cs3)cc2)[C@@H]2C(=O)N(C)C(=O)[C@@H]21	-2.0	-0.9	-10.3	21.6	x	0.1	x
O=C1CCC([N+](=O)[O-])C(c2ccc(Cl)c([N+](=O)[O-])c2)N1 (stereo unspecified)	-1.0	-1.2	3.7	3.9	-4.9%	1.0	0.646
CCCn1c(=N)n(CC(=O)c2ccc(OCC(=O)OC)cc2)c2ccccc21	-2.4	0.9	0.9	8.6	x	0.4	0.653
O=C(Nc1ccccn1)C(=O)Nc1ccccn1	0.6	4.8	4.0	-8.0	-11.8%	-6.2	0.668
COC(=O)c1cc2sc(Cl)cc2n1CC(=O)NCCC(C)C	-5.0	4.1	0.1	-7.2	-30.5%	-0.6	0.709
Cc1nc2c(sc3nc(N4CCOCC4)c4c(c32)CC(C)(C)OC4)c(-c2ccc(Cl)cc2)c1C(=O)O	15.4	0.4	-17.7	-18.5	-0.7%	-0.8	0.707
Cn1ccc2cc(OCc3ccccc3)ccc21	1.0	x	-0.3	-7.6	-3.7%	x	0.665
Cc1nc2ncnn2c(N2CCN(C(=O)Cc3cccs3)CC2)c1C	-4.4	x	2.3	-20.3	9.2%	x	0.764
Cc1cccc(NC(=S)NC(=O)CC2CC(C)(C)OC2=O)c1 (stereo unspecified)	-1.0	0.6	4.4	-14.6	x	-0.6	0.677
COc1ccc(C2=[N+]([O-])C(C)(C)C(c3ccccc3)=N2)cc1	4.2	-1.6	4.9	-4.5	-1.2%	1.2	0.707
O=C(N/C(=C\c1cccnc1)c1nc2ccccc2[nH]1)c1cccc(Br)c1	1.1	2.6	2.8	7.0	u	0.3	0.722
O=c1c(Oc2ccccc2F)coc2cc(OCc3cnn(-c4ccccc4)c3)ccc12	-0.6	2.2	1.1	-4.7	x	-1.4	0.723
COc1ccc(-c2csc(N(CCCN(C)C)C(=O)c3ccccc3C)n2)cc1	1.7	-2.0	3.5	11.2	x	0.0	0.687
COc1ccc(-n2c(SCC(=O)NCC3CCCO3)nc3c([nH]c4ccccc43)c2=O)cc1 (stereo unspecified)	2.9	2.6	-4.2	-4.8	x	1.9	0.699
O=C(c1ccc2nccnc2c1)N1CCCC(N2CCN(c3ccc(F)cc3)CC2)C1 (stereo unspecified)	2.8	3.9	4.7	-1.1	x	0.0	0.685
O=C(CCC(=O)c1cccs1)NCc1ccccc1Cl	4.5	-2.4	-0.5	-3.6	3.7%	0.1	0.676
CC1(C)OC(=O)C(=CNC(Cc2c[nH]c3ccccc23)C(=O)O)C(=O)O1 (stereo unspecified)	6.8	-5.1	2.8	9.7	66.6%	0.0	0.696
O=S(=O)(c1ccccc1)N1CCN(c2nc(-c3cccs3)nc3ccccc23)CC1	x	-1.9	x	x	-6.5%	0.2	x
O=C(O)c1nn2cc(CCO)cnc2c1Cl	-1.8	-2.5	2.1	5.5	20.2%	0.1	0.704
Cc1sc2ncnc(NCc3cccnc3)c2c1C	3.5	-3.6	0.6	-3.1	x	1.0	0.708
CN(C1CCCCC1)S(=O)(=O)c1ccc2c(c1)c(=O)c(C(=O)NCCN1CCCC1)cn2C	-0.5	-3.9	5.9	11.6	0.9%&5.8%	-0.4	0.783
COc1cccc(NC(=O)C2C3C=CC(C3)C2C(=O)O)c1 (stereo unspecified)	-0.8	0.1	x	-1.9	15.8%	2.0	x
O=c1c(Cl)c(NCc2ccc(F)cc2)cnn1C12CC3CC(CC(C3)C1)C2	0.1	-2.1	8.0	-1.8	-0.5%	0.0	0.717
O=C(O)c1nccnc1C(=O)NCCc1c[nH]c2ccccc12	-1.1	-4.2	2.6	-1.5	6.3%	0.1	0.685
SMILES	HNF4A DNA FP	LANA-H2B inh	UCH37 inh	Beta2AR agonist	Vif TR-FRET	Bfl-1 A1 inh	Ecoli growth
COc1ccccc1C(=O)Oc1ccc(C(C)C)cc1	-0.4	4.9	2.4	-2.4	u	-0.4	0.681
O=C(O)CCC(=O)N1N=C(c2c(-c3ccccc3)c3cc(Cl)ccc3[nH]c2=O)CC1c1ccccc1 (stereo unspecified)	1.6	1.9	-42.1	-11.2	0.7%	0.1	0.681
COc1ccc(N/N=C(/C)c2cnnc(-c3ccccc3)n2)cc1	46.2*	0.5	x	8.8	-4.3%	-0.7	x
COCCCNC(=O)c1ccccc1Oc1ccccc1	2.1	4.6	4.5	3.0	-0.8%	0.6	0.706
Cc1ccccc1Nc1nnc(-c2ccc(C(=O)NCCO)cc2)c2ccccc12	3.4	-0.6	3.1	19.0	-1.8%	-1.1	0.634
Cc1cccc(-n2c(Cc3ccccc3)n[nH]c2=S)c1	-1.0	0.9	2.5	2.2	x	u	0.637
CCN(CC)c1ccc(/C=C/C(=O)c2cccnc2)cc1	2.9	0.7	3.4	14.2	x	-0.3	0.721
Cc1nc(SCc2c(F)cccc2Cl)n[nH]1	0.8	0.4	3.5	11.8	0.9%	0.1	0.659
CN(C)/N=C/c1c(O)ccc2ccccc12	0.0	-2.8	x	-4.5	2.1%	-0.1	x
CC(C)NS(=O)(=O)c1cccc2nsnc12	2.3	-5.2	2.2	3.3	20.9%	1.4	0.678
COc1ccc2oc(=O)c(C(=O)Nc3cccc(C(C)=O)c3)cc2c1	2.4	1.7	-7.5	-4.5	x	0.4	0.677
O=C(CCNC(=O)c1ccccc1Cl)Nc1ccc2c(c1)OCO2	3.9	-0.3	1.5	4.6	7.8%	-0.4	0.724
CC(=O)N1CCN(c2ccc(NCc3ccc(C(C)C)cc3)cc2)CC1	-0.7	1.8	3.6	-3.9	u	-0.2	0.71
COc1ccc(C)cc1S(=O)(=O)Nc1ccncc1	3.2	-9.2	-0.9	5.6	1.4%	0.3	0.675
CCn1c(-c2ccc(Cl)cc2)n[nH]c1=S	5.1	-0.2	1.3	1.1	-1.5%	-0.2	0.669
CCSC1=C(C#N)C(c2ccc(Cl)cc2)C2=C(CCCC2=O)N1 (stereo unspecified)	-5.0	-0.9	-18.1	-12.0	0.5%	0.2	0.644
O=C(COc1ccc([N+](=O)[O-])cc1)Nc1nnc(-c2cccnc2)s1	-15.7	0.9	7.8	3.9	x	0.2	0.657
CCC1(c2ccc(C)cc2)NC(=O)N(CC(=O)Nc2cccc(S(=O)(=O)N3CCCC3)c2)C1=O (stereo unspecified)	1.0	-5.3	-1.4	0.0	x	0.4	0.676
O=[N+]([O-])c1ccc(Cl)c(S(=O)(=O)Nc2ccc3cn[nH]c3c2)c1	4.1	-4.4	6.4	-3.0	-8.3%	-0.6	0.697
Cc1nnc(SCc2ccccc2)nc1-c1ccccc1	-1.9	-0.9	-6.5	2.9	x	0.7	0.786
CC1Cc2ccccc2N1C(=O)CNc1cccc(S(=O)(=O)N2CCCC2)c1 (stereo unspecified)	1.8	0.2	0.2	6.5	u	2.5	0.677
COc1cc(-c2n[nH]c(=S)n2-c2ccccc2C(F)(F)F)cc(OC)c1OC	2.4	-2.4	1.3	1.1	x	0.1	0.674
CCn1c(=O)cc(SCC(=O)N2CCCCC2)c2ccccc21	-5.5	2.2	1.5	-2.0	0.9%	0.5	0.654
